PABP polyA inh: PABP-poly(A) binding inhibition | PABP-poly(A) RNA binding, fluorescence polarization | inhibition, % at 35 µM | P11940 | 1% of 290,000 active;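 active = 50% or more with normal probe brightness, or confirmed in later tests; inconclusive = above 50% with abnormal brightness, or retests that disagree; inactive = below 50% or failed in later tests; about a fifth of its hits are not listed in these tables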;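 note: calls also rest on retests at 20 µM and on dose response follow-up; controls were probe without protein and protein plus probe with vehicle; some compounds called inactive have numbers as strong as hits; many hits fall short of the cut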
MT1-MMP act inh: inhibitors of human MT1-MMP activation | AID 651647 | GFP/RFP ratio change, % at 20 µM | P50281 | HT1080 RFP-PRO-GFP cells, GFP/RFP ratio fluorescence, overnight; percent of plate control window, DMSO zero | 0.061% of 360,000 active;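 active = GFP/RFP ratio change of at least 30% with cell ATP level not reduced by more than half and red fluorescence within 50% of control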; note: strong numbers were not always called active
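Test system: HT1080 RFP-PRO-GFP cells; Benchmarks: DMSO and RFP-L50D-GFP cell wells; Timing: cells overnight before dosing, compound overnight, 37 °C, 5% CO2; Compound: one 20 µM compound dose with 1% DMSO; Read-out: GFP/RFP fluorescence ratio.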
Env fusion inh: inhibitors of HIV Env-mediated cell fusion. AID 651610. 1.1% of 360,000 active. HeLa-JRFL Env/CEM21 cell fusion, luciferase. inhibition, % at 12.3 µM;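 active = mean replicate inhibition score of at least 50 and every replicate individually at or above 50; inconclusive = only one of the two criteria met; inactive = mean below 50 and not all replicates reaching 50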;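 note: 0% = plate neutral controls and 100% = maraviroc near 300 nM; one replicate is shown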
eIF4H inh: inhibitors of RNA binding by human eIF4H | AID 2012 | inhibition, % at 35 µM | 0.94% of 290,000 active | eIF4H fluorescence polarization binding assay | Q15056;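 active = 50% or more with normal probe brightness, or confirmed in later tests; inconclusive = above 50% with abnormal brightness, or retests that disagree; inactive = below 50% or failed in later tests; about a fifth of its hits are not listed in these tables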;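 note: calls also rest on retests at 20 µM and on dose response follow-up; 0% = protein and probe with vehicle and 100% = probe without protein; strong numbers were not always called active; many hits fall short of the cut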
CSC inhib: blocks cancer stem cells | inhibition, % at 7.5 µM | cancer stem cell-like cells viability, luminescence | 1.1% of 300,000 active;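 active = mean at 75% or more and at least half the replicates too; inconclusive = mean and replicates disagree; tested in HMLE shEcad cells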;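 note: 0% = median of negative and 100% = median of positive control wells; the first replicate is given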
Yeast UUG start: modulators of start codon recognition fidelity in yeast; S. cerevisiae UUG-firefly luciferase reporter, luminescence/redox ratio; activity score, % at 18.7 µM; 0.13% of 350,000 active; AID 602363;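 active = replicate mean at a twofold rise or more, about +100% in these data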;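 note: firefly luciferase made from a UUG start codon reports start codon fidelity; reporter light over untreated wells divided by growth signal over untreated wells; some hits fall short of that in this replicate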
Rce1 inhib: inhibitors of yeast Ras-converting enzyme; yeast membranes, quenched prenylated peptide cleavage fluorescence; Q03530; calls only; 0.27% of 290,000 active;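 active = fall in fluorescence gain of 50% or more versus controls, with final raw signal at or below 3038400; inconclusive = same 50% fall but final raw signal above 3038400; inactive = fall in fluorescence gain under 50%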;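 note: plate controls were neutral control wells for no effect and wells lacking membranes for full effect; tested at 10 µM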
Target sequence (Q03530 whole entry, looked up): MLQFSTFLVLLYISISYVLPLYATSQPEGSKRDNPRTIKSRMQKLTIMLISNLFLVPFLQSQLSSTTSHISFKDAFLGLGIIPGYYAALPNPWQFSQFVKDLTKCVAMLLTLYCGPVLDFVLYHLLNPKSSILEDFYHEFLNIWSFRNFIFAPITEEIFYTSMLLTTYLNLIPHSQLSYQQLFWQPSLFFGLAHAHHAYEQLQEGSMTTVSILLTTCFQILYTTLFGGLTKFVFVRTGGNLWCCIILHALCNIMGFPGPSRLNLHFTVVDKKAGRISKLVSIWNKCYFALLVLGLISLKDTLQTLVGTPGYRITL
MT1-MMP act inh RFP: also measured in MT1-MMP act inh; calls as there; RFP signal change, %; measured here: RFP expression control read;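 0 = vehicle wells; hits needed this value within 50% of zero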
* hit, by the source's call; i = inactive; ? = inconclusive; . = not tested or not shown.

SMILES | PABP polyA inh | MT1-MMP act inh | MT1-MMP act inh RFP | Env fusion inh | eIF4H inh | CSC inhib | Yeast UUG start | Rce1 inhib
CC(C)c1nnc(NC(=O)CN2C(=O)c3ccccc3C2=O)s1 | -4 | 0 | 2 | . | -6 | -11 | . | i
COc1cc(CC(=O)OCC(=O)N2CCN(C(=O)c3ccco3)CC2)cc(OC)c1OC | . | -6 | 3 | . | . | -6 | -14 | .
O=C(CN1CCN(S(=O)(=O)c2ccccc2F)CC1)N1CCc2ccccc2C1 | . | 0 | 0 | 42 | . | 5 | -25 | .
COc1ccc(OC)c(CC(NC(C)=O)C(=O)NC2CCN(c3nnnn3-c3ccccc3)CC2)c1 (centres undefined) | -11 | . | . | -2 | -3 | -20 | . | i
O=C(O)c1cccc(S(=O)(=O)Nc2ccc(O)c(Sc3nc4ccccc4s3)c2)c1 | 34 | 1 | 2 | 12 | 20 | 4 | . | i
O=C(c1[nH]c(C(F)(F)F)nc1-c1ccccc1)N1CCN(CCN2CCOCC2)CC1 | . | 1 | 3 | 6 | . | . | -12 | .
O=C(Nn1cnnc1)c1csc2ccccc12 | 4 | 4 | -3 | . | -2 | -1 | -20 | i
O=C(CNC(=O)Cn1cnc2sc3c(c2c1=O)CCCC3)NCc1ccccn1 | 6 | 2 | 2 | . | -2 | . | -20 | i
O=C(NCCCN1CCCC1=O)C(=O)NCC1OCCN1S(=O)(=O)c1ccc(Cl)cc1 (centres undefined) | 8 | 0 | 5 | -1 | -1 | -8 | -7 | i
C=CCn1c(CSCc2ccc(Cl)cc2Cl)nnc1SCC(=O)Nc1ccc(C(=O)O)cc1 | 17 | 9 | 2 | -8 | 4 | -20 | -16 | i
COc1ccc(CCNC2=CC(=O)N(c3ccc(F)cc3)C2=O)cc1 | -2 | 1 | -1 | 5 | -9 | -7 | . | i
O=C(O)COc1cccc(NC(=O)c2ccccc2)c1 | -2 | -1 | 6 | -5 | -4 | -3 | -6 | i
Cc1ccccc1OCCn1cc(C(=O)O)c2ccccc21 | -6 | . | . | 17 | -4 | -1 | . | i
CCOC(=O)c1ccc(N2C(=O)CC(N3CCN(C(=O)c4ccccc4)CC3)C2=O)cc1 (centres undefined) | 7 | 1 | 6 | -4 | 0 | -1 | . | i
CCC(C)(C)NC(=O)C(OC(=O)c1ccco1)c1ccccc1OC (centres undefined) | -1 | -1 | 5 | -40 | -5 | -6 | -9 | i
Cc1ccc(NC(=O)CCN2C(=O)CSC2=O)cc1 | 2 | 7 | 12 | . | 0 | . | 3 | i
Cn1c(=NC(=O)CS(=O)(=O)c2ccccc2)sc2cc(F)ccc21 | . | 5 | 0 | 1 | . | . | -15 | .
CCCCc1ccc(NC(=O)CSc2nc(=O)n(CCN3CCOCC3)c3c2CCC3)cc1 | . | -3 | -7 | 8 | . | 0 | . | i
O=C(N/N=C\c1c(O)ccc2ccccc12)c1ccc(Cn2cccn2)o1 | -6 | -131 | -9 | ? | 25 | 30 | -4 | i
Cc1ccc(C2=[N+]([O-])C(C)(C)N(O)C2(C)C)cc1 | 0 | 3 | 3 | 13 | 6 | -3 | . | i
CC1=Nc2ccc(C)cc2/C1=C/c1c(N)n2nc(CC(=O)N3CCOCC3)sc2nc1=O | -7 | -5 | 4 | -5 | 5 | -9 | -11 | i
Cc1ccc(NS(=O)(=O)c2ccc3c(c2)oc(=O)n3C)cc1 | -18 | 3 | -1 | -14 | -6 | -40 | -21 | i
CCOc1ccc(S(=O)(=O)Nc2ccc(C(=O)NCC(C)(C)N3CCOCC3)cc2)cc1 | . | 0 | 0 | -2 | . | -9 | . | i
COc1ccc(N2CCN(CNC(=O)c3ccccc3)CC2)cc1 | -3 | 1 | 2 | 11 | -1 | -7 | -21 | i
Cc1cc2c(cc1C)NC(CC(=O)NCc1ccccc1)C(=O)N2 (centres undefined) | 9 | -14 | 3 | . | 15 | . | . | i
CC(C)n1cc(CN2CCN(CCc3ccccc3)C(CCO)C2)cn1 (centres undefined) | -8 | 3 | 2 | -6 | -1 | 26 | . | i
CNc1nc(Nc2ccc(C)cc2C)c2sccc2n1 | . | 2 | -18 | -9 | . | . | -16 | .
COc1ccc(NC(=O)C2Cc3ccccc3O/C2=N\O)cc1 (centres undefined) | 1 | -2 | -1 | -102 | -6 | 10 | -6 | i
O=C(O)/C=C/c1cnc2ccccc2n1 | -12 | -8 | -4 | -5 | 7 | -11 | 5 | i
O=C(NCC(=O)N(c1ccc(F)cc1)C(C(=O)NC1CCCC1)c1ccncc1)c1ccco1 (centres undefined) | 6 | 1 | 4 | -12 | -13 | -25 | -10 | i
c1ccc(Cn2ccnc2C2OCCO2)cc1 | . | 4 | -5 | 12 | . | . | -11 | .
Cc1cccc(CNC(=O)CC2C(=O)NCCN2C2CCCC2)c1 (centres undefined) | -9 | -8 | 1 | -2 | -6 | 2 | -13 | i
CCCC(C)NS(=O)(=O)c1ccc(OC)c(C)c1 (centres undefined) | -3 | 2 | 7 | -45 | -4 | -16 | -5 | i
CCC(C)C(NC(N)=O)C(=O)Nc1ccc(S(=O)(=O)Nc2ccc(OC)cc2)cc1 (centres undefined) | -7 | 5 | 0 | 10 | -2 | 3 | . | i
COc1ccc(C)cc1S(=O)(=O)NC1CCCCC1C (centres undefined) | -6 | -4 | -1 | . | -9 | -6 | -21 | i
O=C(COC(=O)c1cc(Cl)ccc1O)Nc1ccc2c(c1)OCCO2 | . | -1 | 2 | . | . | -16 | -4 | .
Cc1ccc(NC(=O)COC(=O)C2(C)CC2(Cl)Cl)cc1S(=O)(=O)N1CCOCC1 (centres undefined) | . | 3 | 1 | -208 | . | . | 12 | .
CC(=O)Nc1cnc(-c2ccc(O)cc2C)cn1 | . | -4 | 3 | 6 | . | . | -24 | .
CC(=O)c1cccc(S(=O)(=O)NCCC(=O)Nc2ccc(S(N)(=O)=O)cc2)c1 | 8 | 0 | 3 | -152 | 0 | 0 | -6 | i
CCOC(=O)N1CCN(CC(O)COc2c(OC)cccc2OC)CC1 (centres undefined) | 12 | 4 | 7 | . | 0 | -18 | -22 | i
O=C(Nc1cccc(C(=O)O)c1)/C(=C\c1ccc2c(c1)OCO2)NC(=O)c1ccccc1Cl | 6 | 1 | 0 | 16 | -8 | 6 | -13 | i
CCN(CC)c1ccc(C(=O)OCC(=O)Nc2sccc2C#N)cc1 | 4 | 1 | 4 | -51 | 15 | -6 | . | i
Clc1ccc(Oc2ccccc2)c2ncccc12 | -8 | 1 | 2 | -18 | 1 | -21 | -7 | i
COc1ccc2nc(NC(=O)Cc3ccc(OC)c(S(=O)(=O)N4CCOCC4)c3)sc2c1 | 0 | 0 | -1 | . | -4 | 9 | -2 | i
O=C(c1cc(NC(=O)C23CC4CC(CC(C4)C2)C3)cc(NC(=O)C23CC4CC(CC(C4)C2)C3)c1)N1CCCCC1 | -4 | . | . | . | -3 | 9 | . | i
CC(C)Cc1cc(C(=O)N(C)C2CCCN(Cc3ccccc3F)C2)n(C)n1 (centres undefined) | -4 | 5 | -3 | -18 | 4 | 29 | -9 | i
Cn1nc(C(F)(F)F)c(-c2cccc(C(F)(F)F)c2)c1NC(=O)c1cccnc1 | 6 | -1 | -4 | -3 | 3 | -8 | 0 | i
CC(Oc1ccccc1)C(=O)N1CCN(C(=O)C(C)Oc2ccccc2)CC1 (centres undefined) | 6 | -1 | 0 | -10 | -7 | -20 | -10 | i
Cc1ccccc1NC(=O)c1cc(S(=O)(=O)N2CCCCC2)cs1 | 1 | 6 | -3 | . | 2 | -13 | -16 | i
O=C(NC1CCN(Cc2ccccc2)CC1)c1ccc(S(=O)(=O)NCc2ccco2)cc1 | ? | 0 | -18 | 27 | -3 | 2 | -13 | i
CCOc1cc(C2CC(=O)Nc3cc(C)c(C)cc32)ccc1O (centres undefined) | -12 | -1 | -6 | . | -1 | -2 | 18 | i
O=C(NC(=S)NNC(=O)c1ccccc1[N+](=O)[O-])c1ccccc1 | 6 | 3 | 1 | . | -8 | . | -20 | i
Cc1ccc(CSc2ncnc3onc(C)c23)cc1 | 18 | 0 | 2 | -13 | -6 | 14 | . | i
C[C@H](CO)N1C[C@H](C)[C@@H](CN(C)S(=O)(=O)c2ccc(F)cc2)Oc2c(NS(=O)(=O)c3ccccc3)cccc2C1=O | . | -2 | 3 | -99 | . | . | -1 | .
CCOCCCNc1nc2ccccc2[nH]1 | -2 | 0 | -1 | . | -4 | -1 | -14 | i
COc1ccc(NC(=O)Cn2c3ccc(OC)cc3c3nc4n(c(=O)c32)CCS4)cc1 | . | 4 | 3 | -5 | . | 2 | -6 | i
O=C(Nc1cc(=O)[nH]c2ncnn12)c1ccccc1Cl | 17 | -11 | 5 | -22 | 11 | -8 | -21 | i
O=C(COC(=O)c1cncc(Br)c1)NCc1ccc2c(c1)OCO2 | -8 | 4 | 5 | -12 | 5 | -4 | -8 | i
CC(C)(C)c1ccc(OCCCC(=O)Nc2ccc(S(N)(=O)=O)cc2)cc1 | 1 | 2 | -1 | 5 | 7 | 23 | -21 | i
CCCCCCCNC(=O)C1(CC2CC(c3ccc(Cl)cc3)=NO2)CCN(C(=O)OC(C)(C)C)CC1 (centres undefined) | -15 | -11 | -6 | -61 | -4 | 12 | -10 | i

More structures:
SMILES | PABP polyA inh | MT1-MMP act inh | MT1-MMP act inh RFP | Env fusion inh | eIF4H inh | CSC inhib | Yeast UUG start | Rce1 inhib
Cc1ccc(-n2cc(-c3ccccc3)c3c(NN4CCOCC4)ncnc32)cc1 | -6 | -1 | 1 | . | -15 | 72 | -29 | i
Cc1ccc(F)c(S(=O)(=O)NC(=O)C2(C)CCN2C(=O)Cc2cccc3ccccc23)c1 (centres undefined) | . | 2 | 5 | -8 | . | . | -9 | .
COc1ccc(O)c(CN2CCCC(N3CCc4ccccc4C3)C2)c1 (centres undefined) | -2 | -4 | 2 | 2 | 4 | . | -5 | i
COc1ccc(S(=O)(=O)N2CCC(N3CCCC3)CC2)cc1 | 3 | -1 | -1 | -1 | 1 | 3 | -23 | i
Cc1ccc([C@H]2C[C@H](n3cc(-c4ccc(F)cc4)nn3)[C@@H](O)CN2C(=O)c2cccs2)cc1 | . | 7 | -1 | -3 | . | . | -5 | .
O=C(Oc1ccccc1C(=S)N1CCOCC1)c1ccc([N+](=O)[O-])cc1[N+](=O)[O-] | -6 | -2 | 0 | 15 | -17 | . | 3 | i
Cc1ccc(CNC(=O)CCNC(=O)c2ccc([N+](=O)[O-])cc2)cc1 | . | -1 | -2 | . | . | 10 | 1 | .
Cc1ccc(S(=O)(=O)N=Nc2c(O)[nH]c3ccccc23)cc1C | 18 | 1 | 12 | -14 | -9 | -17 | -20 | i
CC1=C(C(=O)N(C(C)C)C(C)C)CC(CC(=O)NCCc2ccccn2)C(=O)N1CCC1=CCCCC1 (centres undefined) | . | 0 | 1 | 1 | . | . | -9 | .
COc1cccc2cc(C(=O)N(C)C)c(=O)oc12 | 0 | 3 | 4 | -34 | -9 | -6 | -23 | i
CCN(CC)S(=O)(=O)c1ccc(C(=O)NCCSc2c[nH]c3ccccc23)cc1 | 10 | 10 | 1 | -8 | -1 | 18 | 5 | i

Screens deposited in PubChem by several laboratories.
